# GLA inh pH 4.5: alpha-galactosidase A (human) inhibition, pH 4.5; P06280; purified enzyme, 4-MU-alpha-Gal fluorescence, pH 4.5; activity change, negative = inhibition, % at 105 µM; 230,000 tested, under 10 active; inconclusive = small, poorly fitted or top-dose-only inhibition, or a rising curve; inactive = flat fitted curve, though single readings scatter; no compound was filed as active;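 further: 0% = full activity with enzyme and -100% = basal without enzyme; dose as in the result columns while the protocol names 77 µM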
# miR-21 reporter: raises the signal of a miR-21 reporter. HeLa miR-21 FLuc reporter, luciferase, 48 h. Potency, µM (doses to about 38.3 µM), for the others: at the highest dose reporter change, positive = more light. 340,000 tested, under 10 active; active = well fitted rising curve with a large enough effect; inconclusive = small, poorly fitted or top-dose-only effect; inactive = no such curve, though single readings can be large or run the other way;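 further: % of control where 0% means no effect; miR-21 action dims this reporter so a rising signal means less miR-21 action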
#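 HeLa miR-21-FLuc reporter line, endogenous miR-21; 2000 cells/well in DMEM/10% FBS; compound titration up to ~40uM final, 48 h, 37 degree Celsius; luciferase detection reagent, 15 min lysis, CCD luminescence.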
# Rango dissoc inh: inhibition of RanGTP-driven Rango-importin beta dissociation | Potency, µM (doses to about 46.1 µM), without a hit: top-dose activity change, negative = inhibition | Biochemical FRET Rango-importin beta, RanGTP-induced dissociation | O95149+P62826 | 0.071% of 340,000 active; active means falling FRET ratio curve, often poorly fitted, with flat reads before Ran was added; inconclusive means other falling curves, or compound fluorescence or quenching; inactive means flat or rising ratio curve;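 further: potency means the concentration at half of the fitted maximal effect; % of control where 0% means no effect; nearly all actives have a fitted effect of over 45% in size; -100% = wells without RanGTP and RCC1; the record marks most hits as doubtful in a second field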
#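 Quantitative HTS using a FRET biosensor: 0.1 uM Rango, 0.25 uM importin beta, 0.6 uM Ran, 2 mM GTP, 0.2 uM RCC1 final, PBS with DTT, Tween-20 and BSA. Post-read taken 45 min after Ran addition.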
# Rango complex inh: inhibitors of Rango-importin beta complex formation; Q14974; Rango CFP/YFP FRET sensor + importin beta, 45 min; Potency, µM (top dose mostly 92.2 µM), inactives show at the top dose inhibition of complex formation; 0.031% of 340,000 active; active = rising FRET ratio curve, often small or poorly fitted; inconclusive = mostly compound fluorescence or quenching in the first reads; inactive = flat curves in all reads;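 further: potency means the concentration at half of the fitted maximal effect; 0% = DMSO wells and 100% = buffer wells lacking importin beta; nearly all actives have a fitted effect of over 15% in size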
# Target sequence (Q14974 whole entry, looked up): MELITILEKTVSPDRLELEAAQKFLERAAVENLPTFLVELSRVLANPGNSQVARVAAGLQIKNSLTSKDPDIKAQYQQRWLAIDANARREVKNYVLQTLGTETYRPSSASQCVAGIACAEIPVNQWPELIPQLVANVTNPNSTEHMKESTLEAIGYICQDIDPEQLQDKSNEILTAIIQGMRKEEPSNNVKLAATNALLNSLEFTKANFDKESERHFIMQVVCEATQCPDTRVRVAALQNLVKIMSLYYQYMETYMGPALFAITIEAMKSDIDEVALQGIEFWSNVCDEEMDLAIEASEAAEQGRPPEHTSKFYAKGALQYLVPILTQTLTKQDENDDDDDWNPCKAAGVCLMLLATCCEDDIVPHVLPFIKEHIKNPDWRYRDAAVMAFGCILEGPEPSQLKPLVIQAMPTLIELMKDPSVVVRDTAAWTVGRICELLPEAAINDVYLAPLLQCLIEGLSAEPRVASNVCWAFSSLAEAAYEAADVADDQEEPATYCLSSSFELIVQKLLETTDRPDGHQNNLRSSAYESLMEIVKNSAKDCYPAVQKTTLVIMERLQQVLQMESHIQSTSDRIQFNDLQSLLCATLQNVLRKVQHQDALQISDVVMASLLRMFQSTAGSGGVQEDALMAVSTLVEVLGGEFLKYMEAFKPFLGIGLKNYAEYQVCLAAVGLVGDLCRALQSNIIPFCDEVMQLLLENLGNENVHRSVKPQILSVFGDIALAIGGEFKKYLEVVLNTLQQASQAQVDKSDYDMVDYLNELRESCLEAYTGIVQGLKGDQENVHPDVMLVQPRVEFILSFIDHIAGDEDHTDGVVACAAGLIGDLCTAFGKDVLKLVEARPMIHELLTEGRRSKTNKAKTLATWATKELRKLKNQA
#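 FRET biosensor (snurportin 1 IBB flanked by EYFP and cerulean), 50 nM, with compound 5 min, then 0.125 microM importin beta in PBS, 1 mM DTT, 0.02% Tween-20, 0.1% BSA. CFP/YFP ratio read after 45 min at room temperature; pre-read flags interference.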
# The depositor's hits bear a star; ? = inconclusive; · = no result given; & = joins results of further samples. Not all compounds are listed; count on the stated rates, not on these rows.
SMILES,GLA inh pH 4.5,miR-21 reporter,Rango dissoc inh,Rango complex inh
CCOC(=O)C1=C(C)NC(C)=C(C(=O)OCC)C1c1sccc1C,3.2,15.0%,16.8%,-3.3%
COC(=O)Nc1ccc(S(=O)(=O)N2CCCC(C(=O)NC3CCS(=O)(=O)C3)C2)cc1 (stereo not given),-10.8,0.9%,-21.4%,-2.1%
Cc1nc2ccc(NS(=O)(=O)c3ccccc3F)cc2s1,·,·,-1.5%,4.2%
O=C(NCCCN1CCCC1=O)Nc1ccccc1F,·,-22.2%,6.5%,-2.4%
O=C(NCCCc1ccccc1)c1ccccc1,-0.4,-43.4%,-4.4%,2.1%
Cc1ccc(OCCNC(=O)c2ccc(COc3ccccc3)o2)cc1,·,·,-8.7%,0.2%
O=C(CN1CCCCC1)N1N=C(c2cccs2)CC1c1cccs1 (stereo not given),4.1,-6.9%,0.9%,-0.5%
COc1cc(OC)c(OC)cc1/C=N/N(C)c1ccccc1,-13.4,-8.8%,1.8%,-0.7%
S=C1N[C@H]2CCCC[C@@H]2N1,-2.6,5.9%,24.0%,2.4%
COC(=O)N1C(=O)[C@](c2ccccc2)(C2CCCCC2)N1C(=O)OC,·,5.5%,1.9%,-1.0%
Cc1cc(C)n(-c2nnc(N3CCN(c4ccccc4)CC3)nn2)n1,-2.6,-4.5%,3.1%,-2.1%
CN(CC(=O)NCCc1ccc(Cl)cc1)S(=O)(=O)c1cccs1,·,-6.1%,23.9%,-0.8%

# Shown as labelled records: part of the list above.
SMILES: Cc1cc(C)n(-c2nnc(N3CCN(c4ccccc4)CC3)nn2)n1
  GLA inh pH 4.5: -2.6
  miR-21 reporter: -4.5%
  Rango dissoc inh: 3.1%
  Rango complex inh: -2.1%
SMILES: CN(CC(=O)NCCc1ccc(Cl)cc1)S(=O)(=O)c1cccs1
  GLA inh pH 4.5: ·
  miR-21 reporter: -6.1%
  Rango dissoc inh: 23.9%
  Rango complex inh: -0.8%

# The list goes on.
SMILES,GLA inh pH 4.5,miR-21 reporter,Rango dissoc inh,Rango complex inh
Nc1ncnc2c1ncn2[C@@H]1O[C@H](CO)C[C@H]1O,·,·,-8.2%,-1.5%
CCCOC1CCCN(C(=O)c2ccc(OC3CCN(C(=O)CCOC)CC3)cc2)C1 (stereo not given),·,-16.6%,-0.3%,-4.5%
O=CN1CCN(C(C(=O)NC2CCCC2)c2cc3c(cc2[N+](=O)[O-])OCO3)CC1 (stereo not given),-5.6,-0.4%,-6.0%,1.1%
COc1ccc(Cl)cc1NS(=O)(=O)c1cccc(C(=O)NC2CC2)c1,·,·,2.4%,-0.7%
COc1ccc(-c2csc(N(CC3CCCO3)C(=O)c3ccco3)n2)cc1 (stereo not given),-5.5,6.0%,-2.5%,4.5%
O=S(=O)(c1ccc(N2CCN(S(=O)(=O)c3ccccc3)CC2)nc1)N1CCCC1,5.0,0.7%,1.6%,1.0%
CC(C)(C)c1nnc2sc(SCC(=O)NCc3ccco3)nn2c1=O,·,·,-5.5%,-3.7%
COc1ccc(C(=O)NCCSc2ccccc2C)cc1,·,-47.0%,-7.1%,-0.1%
O=C(CN1CCN(C(=O)C2COc3ccccc3O2)CC1)Nc1ccc(F)cc1 (stereo not given),4.6,-1.3%,4.9%,-1.5%
COc1ccccc1NS(=O)(=O)c1cc(C(=O)NCC(C)(C)N2CCOCC2)ccc1C,·,·,7.6%,0.5%
CCc1ccc(N(C(=O)c2csnn2)C(C(=O)NC(C)(C)CC)c2cccnc2)cc1 (stereo not given),2.1,-0.6%,0.1%,1.9%
Cc1cc2nc(-c3ccc(=O)[nH]c3)n(C)c2cc1C,·,-16.5%,4.5%,4.8%
Cc1ccc(NS(=O)(=O)c2ccccc2)c(NS(=O)(=O)c2ccccc2)c1,·,·,0.6%,1.0%
CC(=O)Nc1nc(C=C(Cl)Cl)cs1,-6.3,-10.4%,-19.1%,0.7%
S=C(Nc1cccc(Cl)c1)Nc1ccccc1Oc1ccccc1,-5.6,8.4%,15.1%,-0.7%
CCOc1ccccc1C(=O)NCC(=O)NNC(=O)c1cccs1,·,·,-16.2%,0.6%
COc1ccc(O[C@H]2C=C[C@@H](c3ccccc3)O[C@@H]2COC(=O)CC/C(C)=N/OC[C@@H](O)COCc2ccco2)cc1,-6.1,1.5%,·,·
Cc1nn(-c2ncc(C(F)(F)F)cc2Cl)c(=O)n1-c1cccc(F)c1,-1.2,4.0%,-6.4%,?
Clc1ccccc1Nc1nc2ccccc2o1,·,·,22.6%,0.6%
O=C(NCc1ccccn1)c1cc(-c2ccncc2)nc2ccccc12,·,·,-9.4%,-0.1%
C=CCNc1nc2ccccc2nc1NS(=O)(=O)c1ccc(OC)cc1,·,-6.0%,?,?
CCOc1ccc(Nc2nc(Cl)nc(NCCO)n2)cc1,-1.7,-8.0%,12.9%,-0.8%
COc1ccc(NC(=O)CC2C(=O)N(C)C(=S)N2CCc2ccccc2F)cc1 (stereo not given),5.3,?,-0.4%,-0.8%
Cc1cc(C)c2c(=O)[nH]c(SCc3ccc([N+](=O)[O-])cc3)nc2n1,-6.0,-0.8%,-12.2%,0.5%
O=C(Nc1ccccc1)c1cc([N+](=O)[O-])ccc1NC1CCCCC1,-11.9,-4.1%,0.9%,-0.6%
COc1ccccc1CN1CCNC(=O)C1CC(=O)NC1CCCCCC1 (stereo not given),·,-1.5%,-1.5%,-4.3%
CNC(=S)N(Cc1ccc(OC)cc1)Cc1cc2cc(C)ccc2[nH]c1=O,3.4,-3.7%,19.2%,-2.2%
Cc1ccc2c(CC(=O)NCc3cccs3)coc2c1,4.7,-44.0%,-7.2%,-10.8%
Cc1onc(-c2ccccc2)c1C(=O)Nc1cccc(S(=O)(=O)N2CCCCC2)c1,·,·,-10.3%,-0.7%
CCCCn1c(N)c(N(CCOC)C(=O)c2cc(C)oc2C)c(=O)[nH]c1=O,·,·,-1.3%,-1.3%
CN1CCN(Cc2cc(=O)oc3ccc(Cl)cc23)CC1,-5.6,-14.4%,5.8%,-3.0%
Cc1ccc(-n2ncc3c(N4CCN(c5ccccc5)CC4)ncnc32)c(C)c1,-8.7,-12.9%,-4.1%,-0.3%
O=C(N/N=C/c1ccccn1)C(=O)N1CCCCCC1,-1.0,-1.0%,19.7%,-0.4%
O=[N+]([O-])c1ccc(-c2c(O)c3ccccc3c3nc4ccccc4nc23)cc1,1.3,4.0%,-12.9%,0.0%
CC1CCCC(C)N1S(=O)(=O)c1ccc(NC(=O)CNC2CCCC2)cc1 (stereo not given),·,-4.2%,-18.3%,-2.9%
Cc1c(NC(=O)c2cn3ccccc3n2)cccc1-n1cnnn1,-7.2,-29.5%,-5.7%,-2.7%
O=C(O)c1ccc2c(c1)C(=O)N(c1cc(C(=O)O)ccc1Br)C2=O,-7.6,1.4%,-11.5%,0.5%
O=C(CCN1C(=O)/C(=C/C=C/c2ccccc2)SC1=S)Nc1nccs1,10.7,-1.0%,2.0%,-8.5%
CC(C(=O)N1CCc2ccccc21)N1CCN(Cc2ccc(Cl)cc2)CC1 (stereo not given),·,1.6%,-4.9%,2.1%
O=C(Nc1ccc(S(=O)(=O)N2CCOCC2)cc1)c1nn(-c2ccc(F)cc2)ccc1=O,·,-3.8%,0.3%,-2.8%
CC(=O)c1ccc(OC(=O)CCN2c3ccccc3Sc3ccccc32)cc1,3.2,-0.6%,5.4%,1.0%
Cc1nc(-c2ccc(F)cc2)c(CC(=O)N2CCN(S(=O)(=O)c3ccccc3Br)CC2)s1,·,0.1%,-0.6%,-0.9%
CCCNC(=O)CSc1nc(-c2cccs2)cc(C(F)(F)F)n1,7.0,-3.7%,-4.4%,3.2%
Cc1csc(SC(C)C(=O)Nc2ccc(Cl)cn2)n1 (stereo not given),-7.5,-16.1%,5.1%,-2.1%
CC(C)C(=O)Nc1cccc(C(=O)Nc2nccs2)c1,11.0,-17.0%,-0.5%,-0.1%
COC(=O)CSc1nc(C)c2ccc(OC)cc2n1,28.3,-5.2%,7.2%,3.2%
O=C(/C=C/c1ccccc1)Nc1cccc(S(=O)(=O)Nc2ccccc2F)c1,2.1,-15.4%,-11.4%,0.4%
C=CCN1c2ccccc2[C@]23C[C@@H](C(=O)OC)N(C(=O)NCCC)C2=NC(C(=O)OC)=C(C(=O)OC)[C@H]13,1.7,6.9%,-6.1%,2.2%
CC(=O)c1ccc(N=Nc2ccc(C)cc2)cc1,1.7,-40.8%,11.9%,-0.2%
C/C(=N\NC(=O)COc1ccccc1F)c1cc2ccccc2o1,5.7,-66.3%,4.5%,-0.1%
Nc1nc(CSc2ncccn2)nc(Nc2ccccc2)n1,7.2,-53.5%,-2.3%,-1.9%
Cc1ccc(NC(=O)COC(=O)Cn2cnc3c2c(=O)n(C)c(=O)n3C)cc1F,·,·,-0.3%,2.4%
COc1ccc(Nc2nnc(SC(C(=O)Nc3cc(C)ccc3C)c3ccccc3)s2)cc1 (stereo not given),-6.3,-2.3%,0.1%,-1.4%
COc1ccccc1Nc1nc(NCCC(C)C)nc(N)c1[N+](=O)[O-],-7.4,0.9%,-4.4%,-3.5%
Cc1cn([C@H]2C=C[C@@H](CO)O2)c(=O)[nH]c1=O,-0.3&-2.8&6.2,-5.7%&-1.0%,-13.2%&12.4%,-2.5%&0.4%
O=[N+]([O-])c1ccc2oc(-c3ccccc3)nc2c1,0.2,-36.5%,0.4%,0.0%
Cc1ccc(N=C2NC(=O)/C(=C/c3cccnc3)S2)c(C)c1,-8.0,2.6%,0.5%,0.3%
O=C(NCCc1ccccc1)C(=O)Nc1nccs1,1.4,-16.9%,0.7%,0.2%
O=C(OCC(F)(F)F)c1cccc(COc2ccc3ccccc3c2)c1,4.0,-55.3%,-8.5%,-3.5%
CCOc1ccc(NC(=O)Nc2cccc(C(=O)O)c2)cc1,-5.9,23.4%,17.8%,-3.8%
# Next entries.
SMILES,GLA inh pH 4.5,miR-21 reporter,Rango dissoc inh,Rango complex inh
Cc1cccc(-c2nn(-c3ccccc3)cc2C(=O)N2CCN(C3CCS(=O)(=O)C3)CC2)c1 (stereo not given),·,·,1.2%,0.3%
C=CCN(c1ccc(C(=O)N2CCCC2)cc1)S(C)(=O)=O,-4.4,-0.4%,11.3%,5.0%
O=C(Nc1ccc2c(c1)OCCO2)c1ccc(NC(=O)C2CCCO2)cc1 (stereo not given),11.5,9.1%,1.1%,-2.0%
c1ccc(CNc2ncnc3sc4c(c23)CCCC4)nc1,0.5,-12.4%,-0.1%,-0.6%
CCOc1ccc(NCc2cccn2-c2nnc(N3CCC(C(=O)NCCCN4C(C)CCCC4C)CC3)s2)cc1 (stereo not given),·,-17.2%,-8.0%,-4.0%
O=C1N/C(=N/N=C/c2ccc(O)cc2)SC1Cc1ccccc1 (stereo not given),-12.6,-21.4%,0.8%,1.8%
COc1cccc(NC(=O)CN(C)C(C)C(=O)NC(=O)NC2CCCCC2)c1 (stereo not given),·,·,-9.5%,-0.2%
CN(CCOC(=O)c1ccc2c(c1)OCCO2)Cc1ccccc1,4.3,-7.8%,18.9%,-2.7%
CC1(C)OC2OC(C(=O)N/N=C/c3ccccc3F)C3OC(C)(C)OC3C2O1 (stereo not given),-11.8,-2.0%,1.5%,-2.1%
Cc1onc(-c2c(Cl)cccc2Cl)c1C(=O)c1c[nH]c(C(=O)NC2CC2)c1,8.6,2.8%,1.2%,-0.2%
O=C(c1ccco1)N1CCN(Cc2cc(=O)oc3cc(O)ccc23)CC1,·,·,?,?
CC(C)CN(CC(C)C)C(=O)c1cc2c(=O)n3ccccc3nc2s1,·,-13.1%,-17.4%,-6.6%
Cc1nc(SCC(=O)NCC2CCCO2)[nH]c(=O)c1C (stereo not given),·,·,11.7%,4.6%
O=C(CSc1nnc2ccc(-c3ccncc3)nn12)Nc1ccc(F)cc1,·,·,14.0%,3.2%
Cc1cccc(NC(=O)CCSc2ccccn2)c1,5.5,-42.3%,18.5%,-0.3%
COc1cc(C)nc(OCCNC(=O)COc2ccc(Cl)cc2Cl)n1,8.7,-3.4%,-10.9%,-0.3%
CC(C)CCNC(=S)NC1CCCC1,-14.3,-4.1%,-4.4%,-2.6%
O=C(Oc1ccccc1OC(=O)N1CCOCC1)N1CCOCC1,8.4,2.5%,21.2%,1.2%
O=C(CSc1ncccc1-c1nc2ccccc2[nH]1)N1CCc2ccccc21,2.0,-73.8%,-2.5%,-0.4%

# Screens as filed in PubChem BioAssay.
